Bioassay records deposited in PubChem by Broad Institute.
A1 inhib – blocks A1 activity | MEF A1-2A-BIM cells, caspase-Glo luminescence, 3 h; percent of clofoctol signal, DMSO as zero | caspase activation, % (no concentration beside the values) | 21,000 compounds, 0.51% hits;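 active means most replicate scores above 10, or exactly half above 10 with mean activity above 10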;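 further: effector caspase 3 and 7 activity cleaving a DEVD luciferin substrate; 50 nL library stock added to about 30 µL; numbers are from one replicate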
BJeLR viability – lowers viability of BJeLR cells; 30,000 compounds, 0.64% hits; viability loss activity score, % (concentration not given with the values); BJeLR fibroblasts viability, CellTiterGlo ATP luminescence, 48 h; HRASV12, hTERT and SV40 LT/ST transformed; in the data active means viability loss activity score above about 50%; about a fifth of its hits are not listed in these tables;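 further: higher score means fewer live cells and less ATP luminescence; stock transfer was 50 or 100 nL into about 30 µL; 0% = vehicle wells and 100% = a reference killing control; one replicate is shown; the record names a cut of 85%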
* marks the source's active call; other numbers are inactive results; . = no result given. An excerpt; count on the stated rates, not on these rows.

nr	compound	A1 inhib	BJeLR viability
1	C[C@H](CO)N1C[C@H](C)[C@@H](CN(C)Cc2ccc(Cl)c(Cl)c2)Oc2c(NC(=O)c3ccc(-c4nccs4)cc3)cccc2C1=O	.	-3.4
2	COC(Cn1c(SCC(=O)Nc2cc(Cl)cc(Cl)c2)nnc1-c1ccccc1)OC	0.7	-4.8
3	C[C@H](CO)N1C[C@H](C)[C@@H](CN(C)C(=O)Nc2ccccc2)Oc2c(NC(=O)c3nc4ccccc4s3)cccc2C1=O	.	0.0
4	COc1ccc(NC(=O)C2CC(c3cccc(OC)c3)=NO2)cc1 (stereo not given)	.	-6.5
5	c1csc(-c2cc(N3CCCCC3)c3ccccc3n2)c1	-0.5	-3.9
6	CCOC(=O)c1ccc(NC(=O)CSc2nccn2-c2cccc(C)c2C)cc1	.	-5.1
7	C[C@H](CO)N1C[C@H](C)[C@@H](CN(C)Cc2ccc(C(=O)O)cc2)Oc2c(NS(=O)(=O)c3cn(C)cn3)cccc2C1=O	.	-1.6
8	CSC(=Nc1c(C)cccc1C)N(C)C	0.4	-4.2
9	COc1c2ccoc2nc2c(OC)c(OC[C@@H](O)C(C)(C)O)ccc12	0.4	1.2
10	CCCc1c(C(=O)OCC)c(C(=O)OCC)c2c(-c3ccccc3)nc(N3CCOCC3)nn12	-0.3	-5.3
11	CSc1n[nH]c(=O)n1C1CCCCC1	0.8	-1.7
12	C[C@H]1CN([C@@H](C)CO)C(=O)c2cccc(NC(=O)Nc3ccccc3)c2O[C@H]1CN(C)Cc1ccc(C(=O)O)cc1	.	4.1
13	CC(C)NC(=O)N(C)C[C@H]1Oc2ccc(NC(=O)Nc3ccc(C(F)(F)F)cc3)cc2C(=O)N([C@H](C)CO)C[C@H]1C	0.1	-4.4
14	COc1cccc(/C=C2\CC(C)C/C(=C\c3ccccc3OC)C2=O)c1 (stereo not given)	0.6	-6.9
15	O=C1OC(c2ccc(-c3ccccc3)cc2)=N/C1=C\c1ccco1	0.4	4.0
16	Cc1noc(C)c1NC(=O)Nc1cccc2c1O[C@@H](CN(C)Cc1ccc(-c3ccccc3)cc1)[C@H](C)CN([C@H](C)CO)C2=O	.	-1.7
17	O=C(CSc1ccccc1)N1CCN(c2ccc(F)cc2)CC1	.	-0.8
18	O=C(Nc1c(C(=O)c2ccccc2)oc2ccccc12)c1cccs1	.	-2.8
19	COC(=O)c1ccccc1C(=O)c1ccccc1	-0.6	-6.1
20	CC(C)NC(=O)Nc1ccc2c(c1)C(=O)N([C@H](C)CO)C[C@@H](C)[C@@H](CN(C)Cc1ccc(-c3ccccc3)cc1)O2	0.4	-1.3
21	CC(=O)Nc1ccc(S(=O)(=O)CCO)cc1	2.6	-11
22	CCOC(=O)c1nc(C)nc(Sc2n[nH]c(-c3cc(C(F)(F)F)cc(C(F)(F)F)c3)n2)c1C	1.1	1.2
23	Cc1noc(C)c1NC(=O)N(C)C[C@H]1Oc2ccc(NS(=O)(=O)c3cccs3)cc2C(=O)N([C@H](C)CO)C[C@H]1C	0.0	-1.7
24	COc1ccc(S(=O)(=O)N(C)C[C@@H]2Oc3ccc(NC(=O)Nc4c(C)noc4C)cc3C(=O)N([C@@H](C)CO)C[C@H]2C)cc1	0.1	0.1
25	CCCc1c(C(=O)O)c(O)cc2c1C(=O)c1c(O)cccc1C2=O	0.8	2.4
26	CCOC(=O)c1cnn(-c2ccccc2)c1NC(=O)C(C)(C)C	0.7	-7.7
27	COc1ccc(S(=O)(=O)N(C)C[C@@H]2Oc3c(NC(=O)NC(C)C)cccc3C(=O)N([C@@H](C)CO)C[C@@H]2C)cc1	.	-3.1
28	COC(=O)CC1C(=O)NCCN1C(=O)c1ccccc1 (stereo not given)	1.1	-4.6
29	COc1ccc(NC(=O)N(C)C[C@H]2Oc3ccc(NS(=O)(=O)c4ccc(OC)cc4)cc3C(=O)N([C@H](C)CO)C[C@@H]2C)cc1	-0.5	-0.7
30	CCCC1=CC(=O)C(O)C1O (stereo not given)	0.0	0.1
31	CC(C)NC(=O)N(C)C[C@H]1Oc2ccc(NC(=O)Cc3ccccc3)cc2C(=O)N([C@H](C)CO)C[C@H]1C	-0.7	-2.2
32	CCOC(=O)c1oc2cc(O)c(CC)cc2c(=O)c1-c1ccc2c(c1)OCCO2	.	5.4
33	C[C@@H]1CN([C@@H](C)CO)C(=O)c2cccc(NC(=O)Nc3ccc4c(c3)OCO4)c2O[C@@H]1CN(C)Cc1ccc(-c2ccccc2)cc1	.	-2.5
34	C[C@@H]1CN([C@H](C)CO)C(=O)c2cc(NC(=O)Cc3cn(C)c4ccccc34)ccc2O[C@H]1CN(C)Cc1ccc(C(=O)O)cc1	-0.2	1.7
35	C[C@@H]1CN([C@H](C)CO)C(=O)c2cccc(NC(=O)Nc3cccc4ccccc34)c2O[C@@H]1CN(C)S(=O)(=O)c1cn(C)cn1	.	3.0
36	C[C@@H]1CN([C@H](C)CO)C(=O)c2cc(NS(=O)(=O)c3ccc(Cl)cc3)ccc2O[C@H]1CN(C)Cc1ccc(C(F)(F)F)cc1	-0.6	4.0
37	C[C@@H]1CN([C@@H](C)CO)C(=O)c2cccc(NC(=O)c3cnccn3)c2O[C@H]1CN(C)Cc1ccc(Cl)c(Cl)c1	.	-4.3
38	C[C@H](CO)N1C[C@H](C)[C@H](CN(C)C(=O)NC2CCCCC2)Oc2c(NS(=O)(=O)c3ccc(Cl)cc3)cccc2C1=O	.	5.1
39	COC(=O)C1=C(Nc2ccccc2NC(=O)c2ccccc2C(=O)O)CSC1	.	-7.1
40	Cc1noc(C)c1NC(=O)Nc1cccc2c1O[C@@H](CN(C)C)[C@@H](C)CN([C@@H](C)CO)C2=O	.	1.5
41	Cc1ccc(N/C(=N/C(N)=S)c2ccccc2)cc1	-0.9	1.7
42	CC(C)=CCc1c(O[C@@H]2O[C@H](CO)[C@@H](O)[C@H](O)[C@H]2O)cc(O)c2c1O[C@H](c1ccc(O)cc1)[C@@H](O)C2=O	-0.3	-9.2
43	Cc1ccc(S(=O)(=O)N(C)C[C@H]2Oc3ccc(NC(=O)NC(C)C)cc3C(=O)N([C@H](C)CO)C[C@@H]2C)cc1	0.4	-3.1
44	COc1ccc(NC(=O)Nc2ccc3c(c2)C(=O)N([C@@H](C)CO)C[C@H](C)[C@@H](CN(C)C(=O)Nc2ccc(C(F)(F)F)cc2)O3)cc1	0.7	1.7
45	C[C@H](CO)N1C[C@H](C)[C@H](CN(C)C(=O)Nc2ccc(C(F)(F)F)cc2)Oc2c(NS(=O)(=O)c3cn(C)cn3)cccc2C1=O	.	-1.3
46	CCOC(=O)C1(NC(=S)N2CCOCC2)Sc2cc(C)ccc2NC1=O (stereo not given)	2.3	18
47	CC(C)Cn1cc(C(=O)NCc2ccco2)c2c3ccccc3n(C)c2c1=O	.	-0.1
48	COc1cc(C[C@@]2(O)C(=O)OC[C@@H]2Cc2ccc(OC)c(OC)c2)ccc1O	-0.7	8.1
49	C[C@@H]1CN([C@@H](C)CO)C(=O)c2cc(NC(=O)Nc3ccc(F)cc3)ccc2O[C@@H]1CN(C)Cc1ccc(C(F)(F)F)cc1	-0.5	-3.1
50	Cc1cc(C)n(-c2ccc(-n3cccc3)cc2)n1	-3.3	-4.7
51	C[C@H](CO)N1C[C@H](C)[C@@H](CN(C)Cc2ccc(Cl)c(Cl)c2)Oc2c(NC(=O)c3ccncc3)cccc2C1=O	.	-16
52	C[C@@H]1CN([C@H](C)CO)C(=O)c2cc(NC(=O)C3CCCCC3)ccc2O[C@H]1CN(C)C(=O)NC1CCCCC1	-0.4	1.9
53	CCOC(=O)c1sc(COc2ccc(C3SCCS3)cc2)nc1C	-2.0	6.1
54	c1ccc(N=C(Nc2ccccc2)Nc2ccccc2)cc1	-0.1	4.3
55	C[C@H](CO)N1C[C@H](C)[C@H](CN(C)C(=O)Nc2ccccc2)Oc2ccc(NS(=O)(=O)c3ccc(Cl)cc3)cc2C1=O	1.0	1.7
56	CCCCCc1cc(OC)c2c(c1C(=O)O)OC(C)(C)C(O)C2 (stereo not given)	0.0	1.2
57	C[C@H]1CN([C@@H](C)CO)C(=O)c2cc(NC(=O)CCCN(C)C)ccc2O[C@H]1CN(C)Cc1ccncc1	0.6	5.3
58	C[C@@H]1CN([C@H](C)CO)C(=O)c2cccc(NC(=O)C3CCCCC3)c2O[C@@H]1CN(C)S(=O)(=O)c1ccc(F)cc1	.	-0.8
59	CN(C)CCCc1cc(C(=O)Nc2ccc(-c3ccncc3)cc2)ccc1O	-0.1	0.4
60	C[C@@H]1CN([C@@H](C)CO)C(=O)c2cccc(NC(=O)Nc3ccc4c(c3)OCO4)c2O[C@H]1CN(C)S(=O)(=O)c1ccccc1	.	-0.1

Compound profiles, from the list above.
`C[C@H](CO)N1C[C@H](C)[C@H](CN(C)C(=O)NC2CCCCC2)Oc2c(NS(=O)(=O)c3ccc(Cl)cc3)cccc2C1=O` in the list: A1 inhib: .; BJeLR viability: 5.1
`CC(=O)Nc1ccc(S(=O)(=O)CCO)cc1` in the list: A1 inhib: 2.6; BJeLR viability: -11

(list continues)
nr	compound	A1 inhib	BJeLR viability
61	C[C@@H]1CN([C@H](C)CO)C(=O)c2cccc(NC(=O)Nc3ccc(F)cc3)c2O[C@H]1CN(C)C	.	4.1
62	C[C@@H]1CN([C@H](C)CO)C(=O)c2cc(NS(=O)(=O)c3cn(C)cn3)ccc2O[C@H]1CN(C)C(=O)Nc1ccccc1	-1.1	-0.8
63	CCOC(=O)C(C)Sc1nc(-c2cccs2)ccc1C#N (stereo not given)	-0.6	13
64	O=C(NC1CCCCC1)c1cc(-c2ccccc2)nc2ccccc12	-0.5	-2.5
65	N#Cc1cc(Cc2ccc(N)c(C#N)c2)ccc1N	-0.5	-1.0
66	C[C@H]1CN([C@@H](C)CO)C(=O)c2cc(NC(=O)Cc3cn(C)c4ccccc34)ccc2O[C@H]1CN(C)Cc1ccc(C(=O)O)cc1	-0.7	9.2
67	Cc1ccc(S(=O)(=O)NCc2csc(-c3ccccc3)n2)c(C)c1	0.3	-3.4
68	C[C@H](CO)N1C[C@H](C)[C@H](CN(C)Cc2ccc3c(c2)OCO3)Oc2ccc(NC(=O)CCN3CCOCC3)cc2C1=O	-0.6	2.2
69	Cc1cc(C(=O)Nc2cccc3c2O[C@@H](CN(C)C(=O)Nc2c(C)noc2C)[C@H](C)CN([C@H](C)CO)C3=O)n(C)n1	.	-0.8
70	COc1ccc(C(=O)N2CCc3ccccc32)cc1OC	0.5	-2.3
71	C[C@H]1CN([C@@H](C)CO)C(=O)c2cccc(NC(=O)C3CCCCC3)c2O[C@@H]1CN(C)CC1CCCCC1	.	1.7
72	CCC1c2[nH]c3ccccc3c2CCN1C(=O)c1ccc(Cl)cc1 (stereo not given)	0.4	-0.4
73	Cc1nc(-c2ccncc2)nc(NCCNc2ccc(C(F)(F)F)cn2)c1Cl	-1.9	-4.1
74	C[C@H]1CN([C@@H](C)CO)C(=O)c2cccc(NS(C)(=O)=O)c2O[C@H]1CN(C)S(=O)(=O)c1cn(C)cn1	.	-5.3
75	C[C@@H]1CN([C@@H](C)CO)C(=O)c2cc(NC(=O)CCN3CCOCC3)ccc2O[C@@H]1CN(C)Cc1ccc(C(=O)Nc2ccccc2N)cc1	.	-2.8
76	O=C(Nc1ccccc1C(=O)NCc1ccccc1)c1ccccc1	-0.1	5.6
77	Cc1noc(C)c1NC(=O)Nc1ccc2c(c1)C(=O)N([C@@H](C)CO)C[C@H](C)[C@@H](CN(C)C(=O)NC(C)C)O2	-0.2	0.5
78	CN(C)/N=C(\NO)c1c(F)cccc1Cl	0.8	-5.5
79	COc1ccc(CN(C)C[C@H]2Oc3ccc(NC(=O)CCN4CCOCC4)cc3C(=O)N([C@@H](C)CO)C[C@@H]2C)cc1	1.1	-2.1
80	C[C@H]1CN([C@@H](C)CO)C(=O)c2cc(NS(=O)(=O)c3cn(C)cn3)ccc2O[C@H]1CN(C)S(=O)(=O)c1cccs1	1.1	6.0

The closing 2 entries of the section before are carried over, then new ones follow:
nr	compound	A1 inhib	BJeLR viability
79	COc1ccc(CN(C)C[C@H]2Oc3ccc(NC(=O)CCN4CCOCC4)cc3C(=O)N([C@@H](C)CO)C[C@@H]2C)cc1	1.1	-2.1
80	C[C@H]1CN([C@@H](C)CO)C(=O)c2cc(NS(=O)(=O)c3cn(C)cn3)ccc2O[C@H]1CN(C)S(=O)(=O)c1cccs1	1.1	6.0
81	CCOC(=O)CC(Nc1nc(N2CCOCC2)nc(N2CCOCC2)n1)c1ccc(C)cc1 (stereo not given)	-0.3	3.9
82	C[C@H](CO)N1C[C@H](C)[C@@H](CN(C)C)Oc2c(NS(C)(=O)=O)cccc2C1=O	.	6.9
83	N#CC1=C(SCC(=O)c2ccc(F)cc2)NC2(CCCC2)C(C#N)C1=O (stereo not given)	0.1	7.9
84	CN(C(=O)Cn1nc(Cc2cccnc2)c2ccccc2c1=O)C1CCCCC1	0.2	3.3
85	C[C@H]1CN([C@@H](C)CO)C(=O)c2cc(NS(=O)(=O)c3ccc(F)cc3)ccc2O[C@@H]1CN(C)C(=O)Nc1ccc2c(c1)OCO2	0.0	-1.3
86	Cc1cc(C)cc(NC(=O)C(C)Oc2ccccc2)c1 (stereo not given)	0.8	7.0
87	C[C@@H]1CN([C@@H](C)CO)C(=O)c2cc(NC(=O)Nc3cccc4ccccc34)ccc2O[C@H]1CN(C)Cc1ccc(Oc2ccccc2)cc1	0.1	-6.0
88	CCc1ccccc1OCC(=O)Nc1ccc(S(N)(=O)=O)cc1	0.1	-2.1
89	C[C@@H]1CN([C@H](C)CO)C(=O)c2cc(NS(=O)(=O)c3ccc(F)cc3)ccc2O[C@@H]1CN(C)Cc1ccc(-c2ccccc2)cc1	0.3	-7.5
90	CCOC(=O)CCSc1n[nH]c(=S)s1	-0.2	-3.8
